VACV E9 pol inh – vaccinia E9 polymerase processive synthesis inhibitors, primary screen, biochemical, absorbance; in vitro processive DNA synthesis, absorbance read-out; active compounds read low; some inactives read as strong as hits; normalized absorbance, % (test concentration not listed); 46,000 compounds, 0.94% hits;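 active = replicate mean up to 90% and picked by the depositor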;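 note: 100% = median of the test wells of a plate; 100 nL library stock went into each well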
The depositor's hits bear a star. An excerpt; rates above refer to the full screens.

SMILES	VACV E9 pol inh
O=C1CCC(=O)N1Oc1ncc(C(F)(F)F)cc1Cl	100
Cc1ccc(NS(=O)(=O)c2ccc(NC(=O)CN3C(=O)c4cccc5cccc3c45)cc2)cc1	100
Clc1ccc(/C=N\n2cnnc2)c(Cl)c1	101
CCOC(=O)c1oc2ccccc2c1NC(=O)c1ccc(S(=O)(=O)N(C)C)cc1	104
O=C(NC(C(F)(F)F)C(F)(F)F)OC1CCCC1	100
Cn1c(SCc2ccc(F)cc2)nnc1C1COc2ccccc2O1 (stereo unspecified)	99
CC1(C)NN1CCCN1NC1(C)C (stereo unspecified)	100
Cc1ccc2c(c1)N(CCCC(=O)N1CCCCC1)C(=O)CO2	93
COC(=O)c1ccc(CSc2nc(-c3cccs3)cc(C(F)(F)F)n2)cc1	91
COc1ccc(N2C(=O)CC(SC(N)=Nc3ccccc3)C2=O)cc1 (stereo unspecified)	100
CCOC(=O)c1cnn(-c2ccccc2)c1NC(=O)Nc1cccc(Cl)c1	102
CCCS(=O)(=O)N1CCCC(C(=O)N2CCN(c3ccccc3)CC2)C1 (stereo unspecified)	103
O=C(COCc1cc(-c2ccc(F)cc2)on1)NCc1cccs1	106
COC(=O)c1c(-c2ccccc2)csc1NC(=O)CCN1CCC(C)CC1	96
Cc1ccc(S(=O)(=O)NCCSc2cc(C(F)(F)F)nc3ccccc23)cc1	90
O=S(=O)(c1ccc(Br)s1)N1CCN(Cc2ccccc2)CC1	105
COC(=O)C1=C(C)NC2=C(C(=O)CC(c3ccc(OC)cc3)C2)C1c1cccc2ccccc12 (stereo unspecified)	107
COC(=O)COc1ccc2c(c1)C(=NO)c1cc(OCC(=O)OC)ccc1-2	100
Cc1cc(NS(=O)(=O)c2ccc(N=Cc3ccccc3O)cc2)no1	98
Cc1csc2nc(-c3ccccc3)cn12	94
O=C(O)C1CC(=O)N(C2Cc3ccccc3C2)C1 (stereo unspecified)	97
COc1ccc(CN2C(=O)CC(C(N)=O)SC2=Nc2ccccc2)cc1 (stereo unspecified)	101
COc1ccc(-n2nnc3c(SCC(=O)Nc4cccc(C(F)(F)F)c4)ncnc32)cc1	85
CCC(C(=O)Nc1cc(C)ccc1C)n1nnc(C(=O)O)c1C(=O)O (stereo unspecified)	86
Cc1cccc(NC(=O)CCCN2C(=O)/C(=C/c3cccs3)SC2=S)c1C	96

(list continues)
SMILES	VACV E9 pol inh
COc1ccccc1N=C(NO)C(=Nc1ccccc1OC)NO	97
OCc1cn(-c2ccccc2)nc1-c1ccccc1	93
O=c1cc(N2CCCC2)c2ccccc2o1	104
O=C(O)C1CC(=O)N(Cc2ccccc2)C(=Nc2ccc(F)cc2)S1 (stereo unspecified)	97
N#CC1=C(N)N(c2ccc(S(N)(=O)=O)cc2)C2=C(CCC2)C1(C(F)(F)F)C(F)(F)F	100
COc1cc(/C=C(\C#N)c2ccc(Cl)cc2)ccc1OC(=O)C1COc2ccccc2O1 (stereo unspecified)	99
CCOc1ccc(Nc2ncnc3nc[nH]c23)cc1	100
Nc1nc(NCc2c(F)cccc2Cl)nn1-c1ccccc1	92
O=C(O)CN(Cc1ccccc1)Cc1ccccc1	99
CC1=C(c2ccc(C)cc2)S(=O)(=O)NC1=NC(C)C12CC3CC(CC(C3)C1)C2 (stereo unspecified)	102
Cc1ccc(C(=O)OC(c2ccccc2)c2nccc3ccccc23)cc1 (stereo unspecified)	99
COC(=O)c1cc2c(-c3cccs3)nn(-c3ccccc3)c2n1Cc1cccc(C)c1	101
O=C(Cc1ccc(Oc2ccccc2)cc1)c1ccccc1	94
CC1Cc2ccccc2N1C(=O)COC(=O)c1ccccc1 (stereo unspecified)	101
Cc1nnc(Nc2cccc(Cl)c2C)s1	105
COC(=O)c1c(C)oc2ccc(OCC#N)cc12	100
O=C(c1ccc2c(c1)N(Cc1ccc(F)cc1)CCS2)N1CCCCC1	89
O=C1/C(=C/c2c(F)cccc2Cl)N2CCC1CC2	91
O=C(CN1CC(=O)Oc2ccccc21)OCC(=O)c1ccccc1	100
Cc1ccoc1CC[N+](C)(C)C	101
CC1CN(C(=O)COC(=O)/C=C/c2ccccc2)CC(C)O1 (stereo unspecified)	104
CC1(C)CC(CCc2nc(=S)[nH][nH]2)C(=O)O1 (stereo unspecified)	98
O=S(=O)(/C=C/c1ccccc1)N1CCN(c2cccc(Cl)c2)CC1	95
CCOc1ccc(CNCc2cn[nH]c2-c2ccccc2)cc1	108
Cc1ccc(C(=O)CC(C(=O)O)n2cccn2)cc1 (stereo unspecified)	106

Next part.
SMILES	VACV E9 pol inh
COc1ccc(NC2=CC(=O)C=CC2=O)cc1	100
O=C(/C=C/c1ccc(F)cc1)N(CCO)Cc1ccccc1	95
COc1ccccc1C(CCNCc1ccccc1)c1ccco1 (stereo unspecified)	107
CCc1c(C)nc2n(c1=O)C(CS(=O)(=O)c1ccc(C)cc1)CS2 (stereo unspecified)	99
Cc1ccc2nc(N3CC(=O)N(CCc4ccccc4)C(=O)C3)c3nncn3c2c1	104
O=C(Oc1c(CN2CCOCC2)cc(Cl)c2cccnc12)c1ccccc1Cl	100
O=C(NCc1cccs1)c1cc(-c2cccs2)on1	102
O=C1NC(=Nc2ccc(O)cc2)S/C1=C\c1ccc(C(=O)O)cc1	99
COc1cccc(Oc2c(C(F)(F)F)oc3cc(OC)ccc3c2=O)c1	103
CN(C)C1=NC(C(F)(F)F)(C(F)(F)F)N=C(c2ccccc2)O1	104
CN(C)c1ccc(/C=C/C(=O)C(C(=O)c2ccccc2)=C2SCCS2)cc1	98
CC(C)S(=O)(=O)/C(C#N)=C/N1CCC(C(F)(F)F)CC1	99
Cc1ccc2cc(CCNC(=O)Cc3cccs3)c(=O)[nH]c2c1	98
Cc1ccc(C(=O)NC2CCCCCCC2)cc1I	99
COc1ccc(C(=O)C[n+]2ccc3c(c2)nnn3C)cc1	100
CCCC1CCC(c2ccc(/C(N)=N/O)cc2)CC1 (stereo unspecified)	100
C[N+](C)(C)CC(=O)[O-]	98
CCCCn1cnc2cc(NCc3ccc(C)cc3)ccc21	100
CCNC(=O)CC1Nc2cc(C)c(C)cc2NC1=O (stereo unspecified)	99
Cc1ccc2[nH]c(=O)c3cc(C(=O)NC(C)C)sc3c2c1	90
CSc1cccc(NC(=O)CCS(=O)(=O)c2ccc3nc(C)sc3c2)c1	101
CN1CCN(S(=O)(=O)c2ccc3c(c2)OCCO3)CC1	101
O=C(c1cccc(F)c1)N1CC=C(c2ccccc2)CC1	108
O=C(CN1C(=O)c2ccccc2C1=O)c1ccc(C(F)(F)F)cc1	88
O=C(COc1ccccc1)Nc1ccc(S(=O)(=O)Nc2ncccn2)cc1	102

27 entries already listed, sorted by formula weight, low to high:
SMILES	VACV E9 pol inh
C[N+](C)(C)CC(=O)[O-]	98
COc1ccc(NC2=CC(=O)C=CC2=O)cc1	100
CC1(C)CC(CCc2nc(=S)[nH][nH]2)C(=O)O1 (stereo unspecified)	98
CCCC1CCC(c2ccc(/C(N)=N/O)cc2)CC1 (stereo unspecified)	100
CCNC(=O)CC1Nc2cc(C)c(C)cc2NC1=O (stereo unspecified)	99
O=C(c1cccc(F)c1)N1CC=C(c2ccccc2)CC1	108
COc1ccc(C(=O)C[n+]2ccc3c(c2)nnn3C)cc1	100
O=C(NCc1cccs1)c1cc(-c2cccs2)on1	102
CCCCn1cnc2cc(NCc3ccc(C)cc3)ccc21	100
CN1CCN(S(=O)(=O)c2ccc3c(c2)OCCO3)CC1	101
O=C(/C=C/c1ccc(F)cc1)N(CCO)Cc1ccccc1	95
CC1CN(C(=O)COC(=O)/C=C/c2ccccc2)CC(C)O1 (stereo unspecified)	104
CCOc1ccc(CNCc2cn[nH]c2-c2ccccc2)cc1	108
COc1ccccc1C(CCNCc1ccccc1)c1ccco1 (stereo unspecified)	107
Cc1ccc2cc(CCNC(=O)Cc3cccs3)c(=O)[nH]c2c1	98
O=C(CN1C(=O)c2ccccc2C1=O)c1ccc(C(F)(F)F)cc1	88
CN(C)C1=NC(C(F)(F)F)(C(F)(F)F)N=C(c2ccccc2)O1	104
O=C1NC(=Nc2ccc(O)cc2)S/C1=C\c1ccc(C(=O)O)cc1	99
O=S(=O)(/C=C/c1ccccc1)N1CCN(c2cccc(Cl)c2)CC1	95
CCc1c(C)nc2n(c1=O)C(CS(=O)(=O)c1ccc(C)cc1)CS2 (stereo unspecified)	99
COc1cccc(Oc2c(C(F)(F)F)oc3cc(OC)ccc3c2=O)c1	103
Cc1ccc(C(=O)NC2CCCCCCC2)cc1I	99
O=C(COc1ccccc1)Nc1ccc(S(=O)(=O)Nc2ncccn2)cc1	102
CN(C)c1ccc(/C=C/C(=O)C(C(=O)c2ccccc2)=C2SCCS2)cc1	98
Cc1ccc2nc(N3CC(=O)N(CCc4ccccc4)C(=O)C3)c3nncn3c2c1	104
CSc1cccc(NC(=O)CCS(=O)(=O)c2ccc3nc(C)sc3c2)c1	101
O=C(Oc1c(CN2CCOCC2)cc(Cl)c2cccnc12)c1ccccc1Cl	100

Continued.
SMILES	VACV E9 pol inh
COc1ccc(N=Cc2sc3ccccc3c2Cl)cc1	70
CCC(Sc1nc2ncccc2[nH]1)C(=O)N(CC)c1cccc(C)c1 (stereo unspecified)	99
CCOC(=O)N1CCN(C(=O)c2cc(Nc3ccc(OC)cc3OC)nc3ccccc23)CC1	97
CCOC(=O)c1c(N(C)C)ccc(C2C=CNC(=O)N2)c1C (stereo unspecified)	105
CCC1CN=C(Nc2cccc(C)c2)S1 (stereo unspecified)	104
O=c1[nH]/c(=C/c2ccco2)c(=O)[nH]/c1=C\c1ccco1	101
O=C(CSc1nc2c([nH]c3ccccc32)c(=O)n1-c1ccccc1)Nc1ccccc1	107
CCCCN(C)c1nnc(NC(=O)Nc2cccc(C)c2)s1	108
COCc1[nH]nc2c1C(c1ccc(OCC(N)=O)c(OC)c1)C(C#N)=C(N)O2 (stereo unspecified)	98
Cc1cc2cc(CNS(=O)(=O)c3ccccc3)ccc2n1C	96
COCCN1C(=O)c2ccccc2C(C(=O)NCCCN2CCC(C)CC2)C1c1ccc(F)cc1 (stereo unspecified)	97
O=C(O)CC(c1ccsc1)n1cccc1 (stereo unspecified)	102
COc1ccc(Cl)cc1S(=O)(=O)NCCN1CCOCC1	95
O=C(CSc1nnc(CNC(=O)c2ccccc2F)o1)Nc1ccc(F)cc1F	106
COc1ccc(NC(=O)CSc2nnc(C)n2-c2ccccc2)cc1	100
Cc1cc(=O)[nH]c(SCC(=O)c2cccs2)n1	100
CC1(C)CCc2cc(CN3CCN(c4ccccn4)CC3)ccc2O1	105
N#C/C(=C\c1ccc(-c2ccc(S(N)(=O)=O)cc2)o1)c1ccc(Cl)cc1	99
N#CNC(=NS(=O)(=O)c1ccccc1)c1ccccc1	98
CNC(=O)c1cn(-c2ccccc2)c(=O)c2ccccc12	105
COC(CNC(=O)c1ccc2c(c1)N(Cc1ccc(Cl)cc1)CCS2)OC	94
O=C(NCC(c1ccc(F)cc1)N1CCOCC1)c1ccc(C(=O)c2ccccc2)cc1 (stereo unspecified)	106
Cc1cccc(-c2nnc3sc(NC(=O)CC(C)C)nn23)c1	98
CC(O)CN1CC2CC(C1)c1cccc(=O)n1C2 (stereo unspecified)	100
CCN(C(=O)Nc1cn(C)c(=O)c2ccccc12)c1ccccc1	101

Continuation.
SMILES	VACV E9 pol inh
CC1=NN(c2nc3ccccc3[nH]2)C(=O)C1CCC(C)C (stereo unspecified)	103
Cc1c(CCC#N)c(=O)n2c([nH]c3ccccc32)c1C#N	101
Cc1ccc(N2COc3cc4c(cc3C2)OCO4)cc1C	100
Cc1nn(-c2ccc3nnc(C)n3n2)c(C)c1CCC(=O)O	100
Clc1ccccc1CN1CCN(c2cccc3[nH]ccc23)CC1	83
O=C(c1cn(-c2ccccc2)nc1-c1cccnc1)N1CCOCC1	86
CCCN(CCC)C(=O)CCc1c(C)nc2c(c(C)nn2-c2ccc(C)cc2)c1C	92
CC(=O)N(C)c1ccc(N=C2C(=O)Nc3ccc(C)c(Br)c32)cc1	100
Cn1c(CN2CCOCC2)nc2cc(NS(=O)(=O)c3ccc(F)cc3)ccc21	98
COc1ccc(/C=C/C(=O)Nc2c3c(nc4c2CCC4)CCCC3)cc1OC	101
CC(C)N1C(=O)C(O)(CC(=O)c2ccccc2Br)c2ccccc21 (stereo unspecified)	103
CC(=NCc1ccccc1)c1sc2ccccc2c1O	95
CS(=O)(=O)N1CCN(CC(O)Cn2c3ccc(Cl)cc3c3cc(Cl)ccc32)CC1 (stereo unspecified)	83
CCCC(=O)Nc1nc2ccccc2s1	100
O=C(O)COCCN1CCN(C(c2ccccc2)c2ccc(Cl)cc2)CC1 (stereo unspecified)	99
CCC(C)NC(=O)C1c2ccccc2C(=O)N(C)C1c1c[nH]c2ccccc12 (stereo unspecified)	104
CSC(=NCc1sccc1COc1ccc(Cl)cc1)NC#N	98
Cc1ccccc1NC1=NCCCS1	110
CCOc1ccc(NC(=O)C2CCCN2c2nnc(N3CCCC3=O)s2)cc1 (stereo unspecified)	97
Cc1cc(NC(=O)C2=C(O)c3ccccc3S(=O)(=O)N2C)no1	100
CC(=O)N1CCN=C1SCc1ccccc1	86
CN(C)CCN1C(=O)c2ccccc2Sc2ccccc2S1(=O)=O	92
CC(C)(C)c1cc2nc(N)nc(N)n2n1	93
CCOC(=O)Cc1csc(=S)n1-c1ccc(OC)cc1	103
CN1CCN(CCNC(=O)c2cnn(-c3ccccc3)c2-n2cccc2)CC1	99

4 structures from above, arranged by heavy-atom count, rising:
SMILES	VACV E9 pol inh
CCC1CN=C(Nc2cccc(C)c2)S1 (stereo unspecified)	104
COc1ccc(Cl)cc1S(=O)(=O)NCCN1CCOCC1	95
Cc1ccc2cc(CCNC(=O)Cc3cccs3)c(=O)[nH]c2c1	98
COC(=O)c1cc2c(-c3cccs3)nn(-c3ccccc3)c2n1Cc1cccc(C)c1	101

More entries:
SMILES	VACV E9 pol inh
Brc1ccc(OCc2cn3ccccc3n2)cc1	95
Cc1cccc(OCC(O)CN2C(C)(C)CCCC2(C)C)c1 (stereo unspecified)	112
CN(C)c1ccc(C2NCC(CCl)O2)cc1 (stereo unspecified)	101
COc1cccc(NC(=O)CSC2=Nc3ccccc3C3=NC(C(C)C)C(=O)N23)c1 (stereo unspecified)	98
CCOc1ccc(Cc2nc3ccccc3[nH]2)cc1	104
Oc1ccccc1C1=NNC(O)(C(F)(F)F)C1 (stereo unspecified)	100
O=C(O)C1CCC(CNCc2ccncc2)CC1 (stereo unspecified)	85
COc1ccc(/C=N/C2=NNC(c3ccc(OC)cc3)=CS2)cc1	99

Screening data: PubChem BioAssay, ICCB-Longwood Screening Facility, Harvard Medical School
